Compound activity deposited in PubChem BioAssay by several laboratories.
HSV augment – enhancers of HSV replication in host cells, fold increase, host cell viability | AID 1956, 2009 | 220,000 compounds, 0.005% hits | maximum fold increase | HSV replication augmentation in cells;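 active means peak rise of 1.5-fold or more in the series; inconclusive means self-fluorescent or not available for retest; tested in PC3 cells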;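 further: first round at 10 µM; read as green reporter fluorescence; hits show the peak of a series up to 25 µM; 1 = signal of infected wells without compound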
RGS16-Gao – modulators of RGS16 binding to Galphao, primary screen, biochemical, human proteins, multiplexed bead flow cytometry. Regulator of G-protein signaling 16 (Homo sapiens) + Guanine nucleotide-binding protein …. bead-based flow cytometry RGS16-Galphao binding, fluorescence; actives lie on both sides. binding response (% of control), % at 10 µM. 220,000 compounds, 0.38% hits. AID 1441, 2008;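 active means below 25% or above 175%, edge rows of some plates excepted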;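 further: Galphao activated by GDP with aluminum fluoride before binding; 100% = wells without compound and 0% = beads without RGS; some results beyond the cut were filed as inactive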
Target sequence (O15492 whole entry, looked up): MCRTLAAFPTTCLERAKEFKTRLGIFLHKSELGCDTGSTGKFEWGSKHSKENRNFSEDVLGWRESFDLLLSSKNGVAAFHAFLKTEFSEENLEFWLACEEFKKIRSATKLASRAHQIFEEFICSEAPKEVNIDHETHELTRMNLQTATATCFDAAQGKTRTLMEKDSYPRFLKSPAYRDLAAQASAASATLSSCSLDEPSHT
Target sequence (P09471 whole entry, looked up): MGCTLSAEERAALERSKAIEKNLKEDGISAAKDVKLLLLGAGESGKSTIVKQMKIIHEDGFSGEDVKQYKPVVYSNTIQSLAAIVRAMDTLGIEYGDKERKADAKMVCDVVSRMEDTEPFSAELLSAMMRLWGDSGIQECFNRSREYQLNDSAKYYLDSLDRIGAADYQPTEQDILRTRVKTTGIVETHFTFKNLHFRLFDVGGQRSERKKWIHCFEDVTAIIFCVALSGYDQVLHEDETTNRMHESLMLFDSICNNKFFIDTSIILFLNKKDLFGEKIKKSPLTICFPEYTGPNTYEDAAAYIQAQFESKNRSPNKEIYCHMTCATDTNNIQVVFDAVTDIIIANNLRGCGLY
PKD1 kinase inh – inhibitors of human PKD1 kinase, biochemical, fluorescence polarization | 200,000 compounds, 0.056% hits | inhibition, %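 (about 10 µM by stock and volumes)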 | PKD1 kinase fluorescence polarization assay | Serine/threonine-protein kinase D1 (Homo sapiens), Q15139 | AID 797, 2007;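 active means inhibition of 50% or more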;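 further: controls were vehicle for no effect and a reference inhibitor for full effect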
GALR2 ag – GALR2 receptor agonists, primary screen, cell-based. 140,000 compounds, 0.48% hits. activation, %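 (tested at 5 µM)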. AID 803, 2007. Galanin receptor type 2 (Homo sapiens), O43603. GALR2-expressing cells, agonist activation read-out;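 active means above mean plus 3 SD of all compounds, about 5% in these data, not always enough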;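 further: 0% = vehicle buffer wells and 100% = reference agonist at full effect; tested in CHO reporter cells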
Target sequence (O43603 whole entry, looked up): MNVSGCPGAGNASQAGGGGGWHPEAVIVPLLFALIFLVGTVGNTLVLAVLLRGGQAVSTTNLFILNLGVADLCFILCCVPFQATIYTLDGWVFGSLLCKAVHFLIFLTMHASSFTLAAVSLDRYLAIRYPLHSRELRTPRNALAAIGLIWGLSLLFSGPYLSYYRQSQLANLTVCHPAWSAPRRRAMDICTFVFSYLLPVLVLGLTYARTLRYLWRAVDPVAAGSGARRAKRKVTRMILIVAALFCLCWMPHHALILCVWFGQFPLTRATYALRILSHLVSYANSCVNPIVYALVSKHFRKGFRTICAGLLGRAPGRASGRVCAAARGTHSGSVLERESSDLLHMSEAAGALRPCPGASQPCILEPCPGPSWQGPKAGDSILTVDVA
Insulin prom inh – inhibitors of insulin promoter-driven GFP, primary screen, imaging, TRM-6 cells (human fetal islet line), eGFP reporter, cell count; reporter expression induced with tamoxifen; inhibition, % at 2 µM; 130,000 compounds, 0.9% hits;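 active means inhibition above the mean plus 3 SD, with well images judged a real hit on visual review, cut at about 60% in these data, passing the limit was not always enough; inconclusive means inhibition over the cutoff but images rejected on review; inactive means inhibition not above the cutoff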
Insulin prom inh cell count – recorded beside Insulin prom inh, whose call it bears; normalized cell count, %; measured here: cell count, toxicity; reference of the scale not given here;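 cells exposed to compound for 48 h; stained nuclei by imaging scaled within each plate; lower means fewer cells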
HSV augment primary fold – also measured in HSV augment; calls as there; fold increase; compound at 10 µM; measured here: primary screen fold increase 10 uM; tested in PC3 cells;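 GFP signal in the first replicate; 1 = infected wells without compound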
* = called active by the depositor; i = inactive; ? = inconclusive; . = no result given. Random draw from the library; any-hit rate near 1.3%.

SMILES	HSV augment	HSV augment primary fold	RGS16-Gao	PKD1 kinase inh	GALR2 ag	Insulin prom inh	Insulin prom inh cell count
CCC(NC(=O)c1ccccc1NC(=O)c1ccccc1)C(=O)OC (stereo not drawn)	i	0.84	99	8	.	-24	114
CC(=O)Nc1c(C)nn(-c2ccc([N+](=O)[O-])cc2)c1C	i	0.9	103	2	.	57	88
Cc1cc(C)n(C(=O)C23CC4CC(CC(C4)C2)C3)n1	i	0.94	98	-3	-0.2	13	76
COc1ccc(C2CC(c3ccc([N+](=O)[O-])cc3)=NN2C(=O)c2ccccc2)cc1OC (stereo not drawn)	i	0.92	103	-9	.	.	.
CCOc1ccc(C2CC(c3cccc(C)c3)n3nc(N)nc3N2)cc1 (stereo not drawn)	i	0.97	105	0	-1.8	0	215
CSC(SC)=C(C(C)=O)C(=O)c1ccc(C)cc1	i	0.85	104	5	-0.1	25	115
CCn1c(SCC(=O)Nc2nc(-c3ccc(C)cc3)cs2)nnc1-c1ccccc1	i	0.69	95	0	-3.2	-11	98
COC(=O)C1=C(C)N(C)C(C)=C(C(=O)OC)C1c1ccsc1	i	0.95	99	-4	-0.8	.	.
CC(C(Sc1ccccc1N)c1ccccc1)[N+](=O)[O-] (stereo not drawn)	i	0.68	90	.	.	.	.
Cc1ccc(NCN2C(=O)C3C4CCC(C4)C3C2=O)cc1 (stereo not drawn)	i	0.9	100	5	-0.4	40	75
Cc1cccnc1NC(=O)c1ccccc1-c1ccccc1C(=O)Nc1ncccc1C	i	1.1	55	-1	0.7	0	87
COc1ccc(OC)c(C2CC(=O)N3CN(c4ccccc4)CSC3=C2C#N)c1 (stereo not drawn)	i	0.9	92	3	-1.5	.	.
CCOC(=O)C1=C(C)Nc2sc(C(=O)c3ccc(C)cc3)c(N)c2C1c1ccc(C(=O)OC)cc1 (stereo not drawn)	i	1.2	104	0	5.5*	18	167
COc1ccc(NC(=O)c2ccc(CN3CCN(c4ccccc4)CC3)cc2)cc1OC	i	0.96	102	-13	0.2	-34	152
CCN(CC)CCCNC(=O)c1cn(CCOC)c(=O)c2c1c1ccccc1n2C	i	1.1	96	-13	-1.7	.	.
CC(=O)OC1CC2(C)C(=O)CCC2C2CCc3cc(O)ccc3C12 (stereo not drawn)	i	0.93	102	-14	0.9	.	.
CCCCOc1ccc(C(=O)NCc2ccccn2)cc1	i	0.9	96	5	-1.4	-71	104
Cc1cc(C)c(C#N)c(SCCS(=O)(=O)c2ccc(Cl)cc2)n1	i	0.8	84	.	.	.	.
Nc1nonc1-n1nnc(C(=O)N/N=C/c2cccc(Cl)c2)c1CSc1ccc(Cl)cc1	i	0.97	102	5	.	.	.
O=C(c1ccco1)N1CCN(c2nc(C3CC3)nc3c2nnn3Cc2ccccc2Cl)CC1	i	0.85	95	1	0.4	-28	134
Cc1cccc(CSc2nc3ccncc3n2CC(=O)Nc2ccc(C)c(C)c2)c1	i	0.92	101	-6	-0.5	15	104
COc1ccc(C(=O)N=c2sc3ccccc3n2C)cc1OC	i	0.86	103	-2	.	-21	109
CCNc1ccc(C(=O)OCC)cc1NC(=O)c1cc(S(=O)(=O)N2CCOCC2)ccc1C	i	1	98	0	-1.1	-18	131
COc1ccc(NC(C)=O)cc1NC(C)C(=O)Nc1cc(C(F)(F)F)ccc1N1CCOCC1 (stereo not drawn)	i	0.91	104	5	0.5	-22	81
CCC(C)[C@H]1CN=C(N)N1CCCc1cc(OC)c(OC)c(OC)c1 (stereo partly drawn)	i	0.89	109	.	.	.	.

Continued:
SMILES	HSV augment	HSV augment primary fold	RGS16-Gao	PKD1 kinase inh	GALR2 ag	Insulin prom inh	Insulin prom inh cell count
C/C(N)=C(/C#N)C(=O)CSc1nnc(-c2ccc(OC(F)F)cc2)o1	i	0.92	103	-17	-1.2	-33	153
COc1ccc(NC2CC(=O)N(c3cc([N+](=O)[O-])ccc3C)C2=O)cc1 (stereo not drawn)	i	0.97	106	-6	.	.	.
Cc1noc(C)c1S(=O)(=O)N1CCC(C(=O)c2ccccc2)CC1	i	1	99	.	.	.	.
COc1nc(N2CCOCC2)nc(C)c1[N+](=O)[O-]	i	0.87	114	-7	-0.2	39	63
O=C(Nc1nccs1)c1cccc(NC(=O)C2CC2)c1	.	.	104	4	1.1	53	102
O=C(NC(=S)N1CCc2ccccc21)C1CCC1	i	1.2	104	4	.	16	54
Cc1cc(NS(=O)(=O)c2ccc(NC(=O)C(C(C)C)N3C(=O)c4ccccc4C3=O)cc2)nc(C)n1 (stereo not drawn)	i	1.2	99	3	-1.4	37	87
Cc1cccc(C)c1OCCOC(=O)c1n[nH]c2ccccc12	.	.	100	-14	.	-7	109
CCN(CCCNC(=O)CN(C)S(=O)(=O)c1cccc2nsnc12)c1cccc(C)c1	i	0.84	.	-10	-2.8	.	.
CC1(C)CC(NCc2ccncc2)CC(C)(C)N1	i	1	100	2	.	.	.
CCN(C(=O)c1cn(CC)c(=O)c2cc(OC)c(OC)cc12)c1ccccc1C	i	0.97	100	-8	-1.5	.	.
O=[N+]([O-])c1cc(S(=O)(=O)N2CCCC2)ccc1NN=C1CCCC1	i	1	102	2	0.9	17	119
Cc1cccc(NC(=S)NC2CC3CCCC(C2)N3Cc2ccco2)c1 (stereo not drawn)	i	0.91	193	-3	.	-28	62
CCNC(=S)N1CCN(c2ccccc2OCC)CC1	i	1	102	14	-0.8	-269	33
C/C=C\C(=O)Nc1cccc(C2=NOC3(C2)C[C@@H](C(N)=O)N(C(=O)c2ccc(OC)cc2)C3)c1 (stereo partly drawn)	i	0.92	98	.	.	.	.
COc1ccc(N(CC(=O)Nc2nccs2)S(=O)(=O)c2c(C)[nH]c(=O)[nH]c2=O)cc1	i	1	136	-3	.	79*	80*
COc1cc(/C=C2/SC(=S)N(CC(=O)O)C2=O)ccc1OC(=O)c1cccs1	?	.	99	.	.	.	.
COc1ccc(C2CC(=O)N(C)c3ccccc3S2)cc1 (stereo not drawn)	i	0.66	103	-4	.	-50	93
Cc1ccc(-c2nnn(CC(=O)N(c3ccccc3)C(C(=O)NCC3CCCO3)c3cccs3)n2)o1 (stereo not drawn)	i	1	97	-6	.	-13	54
CN1CCSc2ccc(C(=O)Nc3ccc(Cl)cc3)cc21	i	1.1	102	.	.	.	.
Cc1ccc(NC(=O)Cn2cccc2)cc1C	i	0.93	91	-7	0.3	.	.
CN1/C(=C\C(=S)NC(=O)c2ccc([N+](=O)[O-])cc2)C(C)(C)c2ccccc21	?	.	125	-10	-0.9	.	.
Cc1[nH][nH]c(=O)c1C(c1ccc(-c2ccc(Cl)cc2)o1)c1c(C)[nH][nH]c1=O	i	0.82	91	-7	-2.0	36	111
CCN(Cc1ccccc1)S(=O)(=O)c1ccc(S(=O)(=O)N(Cc2ccccn2)Cc2ccco2)cc1	i	0.73	103	2	-1.3	30	138
NC(=O)C1(c2ccccc2)CCCN1C(=O)c1ccccc1Br (stereo not drawn)	i	0.88	107	-3	.	.	.

Some of the entries so far, bar-delimited:
SMILES | HSV augment | HSV augment primary fold | RGS16-Gao | PKD1 kinase inh | GALR2 ag | Insulin prom inh | Insulin prom inh cell count
CC1(C)CC(NCc2ccncc2)CC(C)(C)N1 | i | 1 | 100 | 2 | . | . | .
CCN(C(=O)c1cn(CC)c(=O)c2cc(OC)c(OC)cc12)c1ccccc1C | i | 0.97 | 100 | -8 | -1.5 | . | .
O=[N+]([O-])c1cc(S(=O)(=O)N2CCCC2)ccc1NN=C1CCCC1 | i | 1 | 102 | 2 | 0.9 | 17 | 119
Cc1cccc(NC(=S)NC2CC3CCCC(C2)N3Cc2ccco2)c1 (stereo not drawn) | i | 0.91 | 193 | -3 | . | -28 | 62
CCNC(=S)N1CCN(c2ccccc2OCC)CC1 | i | 1 | 102 | 14 | -0.8 | -269 | 33
C/C=C\C(=O)Nc1cccc(C2=NOC3(C2)C[C@@H](C(N)=O)N(C(=O)c2ccc(OC)cc2)C3)c1 (stereo partly drawn) | i | 0.92 | 98 | . | . | . | .
COc1ccc(N(CC(=O)Nc2nccs2)S(=O)(=O)c2c(C)[nH]c(=O)[nH]c2=O)cc1 | i | 1 | 136 | -3 | . | 79* | 80*
COc1cc(/C=C2/SC(=S)N(CC(=O)O)C2=O)ccc1OC(=O)c1cccs1 | ? | . | 99 | . | . | . | .
COc1ccc(C2CC(=O)N(C)c3ccccc3S2)cc1 (stereo not drawn) | i | 0.66 | 103 | -4 | . | -50 | 93
Cc1ccc(-c2nnn(CC(=O)N(c3ccccc3)C(C(=O)NCC3CCCO3)c3cccs3)n2)o1 (stereo not drawn) | i | 1 | 97 | -6 | . | -13 | 54
CN1CCSc2ccc(C(=O)Nc3ccc(Cl)cc3)cc21 | i | 1.1 | 102 | . | . | . | .
Cc1ccc(NC(=O)Cn2cccc2)cc1C | i | 0.93 | 91 | -7 | 0.3 | . | .
CN1/C(=C\C(=S)NC(=O)c2ccc([N+](=O)[O-])cc2)C(C)(C)c2ccccc21 | ? | . | 125 | -10 | -0.9 | . | .
Cc1[nH][nH]c(=O)c1C(c1ccc(-c2ccc(Cl)cc2)o1)c1c(C)[nH][nH]c1=O | i | 0.82 | 91 | -7 | -2.0 | 36 | 111
CCN(Cc1ccccc1)S(=O)(=O)c1ccc(S(=O)(=O)N(Cc2ccccn2)Cc2ccco2)cc1 | i | 0.73 | 103 | 2 | -1.3 | 30 | 138
NC(=O)C1(c2ccccc2)CCCN1C(=O)c1ccccc1Br (stereo not drawn) | i | 0.88 | 107 | -3 | . | . | .

Remaining list, next part:
SMILES	HSV augment	HSV augment primary fold	RGS16-Gao	PKD1 kinase inh	GALR2 ag	Insulin prom inh	Insulin prom inh cell count
COc1ccc(NS(=O)(=O)c2cc(-c3nnnn3C)ccc2OC)cc1	i	0.92	108	-5	-0.4	.	.
O=C(c1ccncc1)N(Cc1ccco1)Cc1cc2ccccc2[nH]c1=O	i	0.89	99	4	-2.2	.	.
COc1ccc(-n2c(C)cc(C(=O)CN3C(=O)c4ccccc4C3=O)c2C)cc1	i	1	101	1	0.2	.	.
CCN1C(=O)C(O)(CC(=O)c2cc(C)ccc2C)c2ccccc21 (stereo not drawn)	i	0.89	91	10	0.4	-19	66
Cn1ccnc1Sc1ccccc1[N+](=O)[O-]	i	0.88	99	4	.	.	.
CCC(Sc1nc(C)cc(=O)[nH]1)C(=O)Nc1ccc(Cl)cn1 (stereo not drawn)	i	0.94	100	-7	-1.1	.	.
Cc1cc(-c2nc(-c3ccc(C(C)(C)C)cc3)no2)no1	i	0.95	98	.	.	.	.
O=S(=O)(c1ccc(Cl)c(C(F)(F)F)c1)N1CCN(c2ccccn2)CC1	i	1	102	-4	.	.	.
O=C(NCCc1ccccc1)C1CCN(c2nc3ccccc3o2)CC1	i	1.3	105	19	-1.8	.	.
COc1ccc(CCN2CN(S(=O)(=O)c3ccc(C)cc3)c3nc4ccccc4nc32)cc1OC	i	0.95	103	-5	-0.3	44	148
Cc1nc(CCNC(=O)c2cc(COc3ccc(F)cc3Cl)on2)sc1C	i	0.91	104	.	.	.	.
C(=N\Nc1nc2ccccc2[nH]1)/c1ccc2ncccc2c1	i	0.67	104	.	.	.	.
O=C(Nc1ccc2c(c1)OCO2)c1ccc(CN2CCOCC2)cc1	i	0.89	103	-3	-1.1	-8	140
O=C(Nc1ccc2c(c1)OCO2)c1cc(-c2ccncc2)nc2ccccc12	i	0.83	102	1	.	14	108
C=CCn1c2ccccc2c2nnc(SCCCn3c(=O)[nH]c4ccccc43)nc21	i	1	96	-2	2.7	-371	109
CC(C)(C)n1ncc2c(=O)n(CC(=O)NCc3ccccc3)cnc21	i	0.83	111	7	-1.7	.	.
CS(=O)(=O)N1N=C(c2cccs2)CC1c1ccccc1O (stereo not drawn)	i	1.1	101	-5	.	.	.
O=C(CN1CCOCCOCCN(CC(=O)Nc2ccccc2)CCOCC1)Nc1ccccc1	i	0.9	104	4	-2.0	.	.
O=C(Nc1cccc2ccccc12)N1CC=CCC1	i	1	100	1	0.5	-23	106
O=C(c1ccc(S(=O)(=O)NCc2ccco2)cc1)N1CCN(Cc2ccc3c(c2)OCO3)CC1	i	0.97	336	-4	.	-13	66
CCOC(=O)c1c(NC(=O)COC(=O)C2CC2C)sc(C)c1C (stereo not drawn)	i	0.91	100	0	.	.	.
Clc1ccc(Cn2c(/C=C/c3ccco3)nc3ccccc32)cc1	i	1.2	69	-4	0.2	-58	65
O=C(CSc1nnc2ccccn12)NC(=O)NC1CCCCC1	i	0.82	102	0	-1.3	-64	110
O=C(O)/C=C/C(=O)Nc1ccc(NC(=O)c2ccccc2)c(Cl)c1	i	0.99	100	2	.	-8	78
